gsp agonist: agonists of gsp mutant (McCune-Albright syndrome). gsp mutant cells, cAMP HTRF, 30 min; control for the full effect not named in the record. Potency, µM (doses to about 76.9 µM), for inactives: at the top dose activation (cAMP increase), hits mostly activators. actives 0.13% (n = 340,000). AID 624287; active = well fitted activation curve with a large enough effect; inconclusive = small, poorly fitted or top-dose-only effect, or another doubt; inactive = no such curve, though single readings can be large or run the other way; cell line not stated here;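 also: phosphodiesterase inhibitor Ro 20-1724 added with compounds to block cAMP breakdown; potency is read from the fitted curve at half-maximal effect; nearly all actives have a fitted effect of over 60% in size; about a fifth of the inactives were tested at one dose only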
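Cells in DMEM/10% FBS with G418 were pretreated with compounds in DMSO plus […] (300 uM stock) for 30 min at 37C. cAMP was measured by HTRF (cAMP-d2 plus anti-cAMP antibody-K) after 30 min at room temperature.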
Menin MLL FP FL: displaces fluorescein MLL peptide from human menin; Fluorescence polarization, fluorescein-MLL peptide displacement from menin; FP activity change, % at 61.4 µM; 290,000 tested, under 10 active; AID 1766; inconclusive = falling polarisation curve, or a change in total fluorescence; inactive = total fluorescence flat and polarisation flat or rising; no compound was filed as active; the % refers to the polarisation; negative = inhibition;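 also: % of control where 0% means no effect; inhibitors lower the polarisation; unlabelled MLL peptide was the positive control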
TRPV1 potentiator: potentiators of human vanilloid receptor 1 (TRPV1). TRPV1-expressing cells, Fluo-8 calcium influx, capsaicin EC20 potentiation; host cell line not named in the record; control for the full effect not named in the record. potentiation, % at 8.33 µM. actives 0.02% (n = 320,000); active means potentiation above 80%; inconclusive means 30% to 80%; inactive means below 30%; also: 0% is about no effect
Target sequence (Q8NER1 whole entry, looked up): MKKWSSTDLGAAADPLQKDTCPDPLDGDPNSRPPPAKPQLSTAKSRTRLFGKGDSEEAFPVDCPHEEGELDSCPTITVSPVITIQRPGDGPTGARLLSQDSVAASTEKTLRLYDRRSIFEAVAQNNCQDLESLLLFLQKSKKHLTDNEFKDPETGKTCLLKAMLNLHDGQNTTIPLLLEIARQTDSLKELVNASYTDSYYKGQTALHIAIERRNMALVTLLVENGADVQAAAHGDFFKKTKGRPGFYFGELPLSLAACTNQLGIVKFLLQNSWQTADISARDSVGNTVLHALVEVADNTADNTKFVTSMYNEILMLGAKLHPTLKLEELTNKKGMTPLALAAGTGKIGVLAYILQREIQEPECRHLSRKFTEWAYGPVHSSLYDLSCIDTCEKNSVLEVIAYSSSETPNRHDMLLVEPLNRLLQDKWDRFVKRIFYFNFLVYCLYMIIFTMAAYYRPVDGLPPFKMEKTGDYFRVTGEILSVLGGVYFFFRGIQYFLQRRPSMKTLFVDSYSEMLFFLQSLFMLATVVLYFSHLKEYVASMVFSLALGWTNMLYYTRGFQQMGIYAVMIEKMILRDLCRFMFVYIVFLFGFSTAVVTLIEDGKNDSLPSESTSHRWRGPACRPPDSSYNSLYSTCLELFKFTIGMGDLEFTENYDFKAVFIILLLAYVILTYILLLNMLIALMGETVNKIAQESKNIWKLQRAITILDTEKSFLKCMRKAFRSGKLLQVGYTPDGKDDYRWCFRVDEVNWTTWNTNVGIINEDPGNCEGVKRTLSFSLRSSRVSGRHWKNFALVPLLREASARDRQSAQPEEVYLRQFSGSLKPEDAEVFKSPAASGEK
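Fluo-8 calcium influx in TRPV1-expressing cells, kinetic read (ex 480/em 520 nm). Compound added and read 3 min for agonist activity, followed by capsaicin at EC20 final and 2 min further read for enhancement.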
D2 potentiator: human D2 receptor positive allosteric modulation | AID 624464 | DiscoveRx D2 beta-arrestin cells, luminescence, 90 min; 100% = 57 uM dopamine signal | potentiation, % (no concentration beside the values) | actives 0.23% (n = 360,000); active = potentiation of 50% or more; inconclusive = 30% to 50%; inactive = 30% or less;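 also: compound concentration not given in the record; tested on top of an EC20 dose of dopamine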
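D2 cells co-treated with compound plus 50 nM dopamine (EC20) for 90 min at 37 deg C to detect potentiation. Beta-arrestin recruitment was read as enzyme-fragment luminescence after 1 h at ambient temperature. Full response was set by 57 uM dopamine.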
gsp antag: antagonizes gsp, the McCune-Albright syndrome mutation | gsp-mutant cells, cAMP HTRF, 30 min; control for the full effect not named in the record | Potency, µM (series often up to 76.9 µM), for the others: at the top dose activity change, negative = inhibition, hits mostly inhibitors | actives 0.4% (n = 340,000) | AID 624288; active = falling curve of any shape with a large fitted effect; inconclusive = falling curve, mostly with a smaller effect; inactive = flat or rising curve; cell line not stated here;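 also: intracellular cAMP measured with PDE inhibitor Ro 20-1724 present during compound exposure; potency is read from the fitted curve at half-maximal effect; % is scaled to controls: 0 for no effect and ±100 for the full control effect; nearly all actives have a fitted effect of over 65% in size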
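Measurement of cellular cAMP by homogeneous time-resolved fluorescence following a 30 min compound exposure at 37C. The PDE inhibitor […] was present throughout; the assay buffer was DPBS with 0.05% BSA and 0.005% Tween 20.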
ClpP mod: qHTS Assay for Activators of ClpP. AID 651965, 2013. actives 1.9% (n = 340,000). ATP-dependent Clp protease proteolytic subunit (Bacillus subtilis (strain 168)), P80244. purified B. subtilis ClpP, FRET peptide cleavage, 20 min. Potency, µM (doses to about 57.5 µM), inactives show top-dose activity change, negative = active; active = well fitted falling curve with a large enough effect; inconclusive = small, poorly fitted or top-dose-only effect; inactive = no such curve, though single readings can be large or run the other way; also: potency is read from the fitted curve at half-maximal effect; the source files actives as falling curves though it sought activators and does not explain the sign; nearly all actives have a fitted effect of over 65% in size; many hits overshoot -100%
Target sequence (P80244 whole entry, looked up): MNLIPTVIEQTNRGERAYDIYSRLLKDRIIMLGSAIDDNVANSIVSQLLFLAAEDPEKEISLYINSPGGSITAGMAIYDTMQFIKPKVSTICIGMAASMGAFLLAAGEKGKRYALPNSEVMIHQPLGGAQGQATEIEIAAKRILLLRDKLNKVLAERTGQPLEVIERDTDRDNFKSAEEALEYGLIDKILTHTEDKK
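ClpP 10 microg/mL final, pH 8 Tris/KCl buffer with BSA, glycerol, Tween-20; compound pinned in; FRET-FV substrate; RT 20 min; Ex320/Em430; ΔFRET vs ADEP 5.8 microM, DMSO, no enzyme.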
Sfp PPTase inh: blocks B. subtilis Sfp PPTase activity; Q9F4F7; Biochemical Sfp PPTase activity, qHTS; Potency, µM, inactives show max response, negative = inhibition, usual class: inhibitors; actives 3.5% (n = 310,000); AID 1490; active = well fitted inhibition curve with a large enough effect; inconclusive = small, poorly fitted or top-dose-only effect, or another doubt; inactive = no such curve, though single readings can be large or run the other way;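 also: the enzyme is Sfp with the accession as filed and its product quenches rhodamine fluorescence; potency is read from the fitted curve at half-maximal effect; 0% = enzyme reaction without inhibitor and -100% = no enzyme wells; top concentration of the series not given in the record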
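Step 1, compound plus 15 nM Sfp-PPTase, 15 min, room temperature. Step 2, add rhodamine-CoA (5 uM) and BHQ-2-YbbR (12.5 uM). Step 3, read 525/598 nm fluorescence at 0 and 30 min.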
* marks the source's active call; other numbers are inactive results; ? = inconclusive; nt = no result given; & = joins results of further samples; [ ] = dose if it differs, or a comment.

SMILES	gsp agonist	Menin MLL FP FL	TRPV1 potentiator	D2 potentiator	gsp antag	ClpP mod	Sfp PPTase inh
O=C(/C=C/c1cc[n+](CC(=O)c2ccc3cccc4c3c2CC4)cc1)c1ccc2cccc3c2c1CC3	?	4.7	5	-16	5%	-2.1%	35µM*
c1ccc(-c2ccc(Oc3cc(N4CCOCC4)nc(-c4ccccc4)n3)cc2)cc1	22%	-2.4	-9	-10	-8%	-2.4%	9%
CN(C)C(/C=C/Nc1ccc(C#N)cc1)=C(C#N)C#N	3%	5.6	4	-3	-6%	1.9%	14%
CCN(c1ccccc1)S(=O)(=O)c1cc(C(=O)NCC(c2ccc(OC)cc2)N(C)C)ccc1C (stereo not given)	4%	nt	nt	-4	0%	1.8%	nt
O=C(c1cc(S(=O)(=O)N2CCOCC2)ccc1Cl)N1CCN(c2ccccn2)CC1	3%	-3.8	11	1	-5%	nt	4%
CN(C)/C=C1\SC(=S)N(c2ccc(Br)cc2)C1=O	16%	?	-5	-3	-7%	0.5%	-10%
COc1ccc(OC)c(CC(=O)Nc2ccc3c(c2)CCC3)c1	13%[15.4 µM]	-0.1	-1	-10	-12%	nt	6%
CCOC(=O)C1C(=O)CC(C)(O)C(C(=O)OCC)C1c1cccs1 (stereo not given)	-40%[inhibitor]	2.3	1	6	-3%	-4.8%	17%
Cc1cccc(C)c1NC(=O)C(C)N1CCCCC1 (stereo not given)	-27%[15.4 µM]	0.2	?	-9	5%	nt	8%
Cc1sc(NC(=O)c2ccco2)c(C(c2cccnc2)N2CCN(CCO)CC2)c1C (stereo not given)	2%	-0.3	-3	-8	-4%	-5.3%	10%
CC(=O)Nc1ccc(N2C(=O)C3C4C=CC(CC4)C3C2=O)cc1 (stereo not given)	13%	-0.4	12	-6	-13%	1.3%	16%
O=C(NCCCN=C1NS(=O)(=O)c2ccccc21)c1ccccc1Cl	-6%	0.0	2	-12	-1%	nt	18%
CC(=O)Nc1ccc(SCC(=O)c2cc(C)n(Cc3cccs3)c2C)cc1	-19%	?	2	-4	-7%	-2.3%	15%
O=C(CCCOc1ccccc1)Nc1ccccc1C(F)(F)F	-51%[inhibitor]	-0.1	-13	-7	-8%	1.7%	4%
Cc1cc(C)cc(-n2nnn(C3C/C(=N/NC(N)=S)C4OCC3O4)c2=S)c1 (stereo not given)	7%	1.6	?	-3	-16%	nt	56µM*
Cc1csc(NC(=O)CSc2nnc(NC(=O)COc3ccc(Cl)cc3)s2)n1	4%	18	10	-22	8%	0.8%	?
CCN(CC)CCNC(=O)C1(O)c2cc(Br)ccc2NC(=O)N1c1ccc(Cl)cc1 (stereo not given)	4%	5.4	6	-11	5%	2.2%	14%
COc1ccc2[nH]c(=O)c(C(c3nnnn3C(C)(C)C)N(Cc3ccco3)CC3CCCO3)cc2c1 (stereo not given)	2%	-1.9	-23	-3	-2%	?	-11%
CN(CC(=O)Nc1ccc(Cl)c(S(=O)(=O)N2CCOCC2)c1)C(=O)c1ccc(C#N)cc1	-13%	nt	-3	0	2%	-1.0%	nt
CCOC(=O)c1c(C)[nH]c(C(=O)N/N=C\c2ccccc2O)c1C	-36%[inhibitor]	1.9	20	-36	-4%	0.8%	-8%
COc1ccc(NC(=O)CC2COc3ccccc3O2)c(OC)c1 (stereo not given)	-1%	0.1	3	-15	-1%	1.2%	12%
O=C(Nc1ccnc(=O)[nH]1)c1sc2ccccc2c1Cl	?	3.0	-13	4	3%	-4.3%	13%
COc1ccccc1CCNC(=O)C1(C)CC1(Cl)Cl (stereo not given)	-24%	6.4	-8	0	4%	nt	10%
CN(C)c1ccc(C(O)Cc2nc3ccccc3n2C)cc1 (stereo not given)	-8%	6.5	-1	0	-1%	-1.2%	3%
O=C(NCc1ccco1)c1cccc(-c2nnc(-c3ccccc3)o2)c1	-15%	1.1	-13	15	-13%	-7.5%	2%

Two entries from above, with each value named:
SMILES: Cc1cc(C)cc(-n2nnn(C3C/C(=N/NC(N)=S)C4OCC3O4)c2=S)c1 (stereo not given)
  gsp agonist: 7% | Menin MLL FP FL: 1.6 | TRPV1 potentiator: ? | D2 potentiator: -3 | gsp antag: -16% | ClpP mod: nt | Sfp PPTase inh: 56µM*

SMILES: Cc1csc(NC(=O)CSc2nnc(NC(=O)COc3ccc(Cl)cc3)s2)n1
  gsp agonist: 4% | Menin MLL FP FL: 18 | TRPV1 potentiator: 10 | D2 potentiator: -22 | gsp antag: 8% | ClpP mod: 0.8% | Sfp PPTase inh: ?

One compound at a time, as listed above:
Record of COc1ccc2[nH]c(=O)c(C(c3nnnn3C(C)(C)C)N(Cc3ccco3)CC3CCCO3)cc2c1 (stereo not given) = gsp agonist = 2%; Menin MLL FP FL = -1.9; TRPV1 potentiator = -23; D2 potentiator = -3; gsp antag = -2%; ClpP mod = ?; Sfp PPTase inh = -11%
Record of O=C(NCc1ccco1)c1cccc(-c2nnc(-c3ccccc3)o2)c1 = gsp agonist = -15%; Menin MLL FP FL = 1.1; TRPV1 potentiator = -13; D2 potentiator = 15; gsp antag = -13%; ClpP mod = -7.5%; Sfp PPTase inh = 2%

Next compounds follow:
SMILES	gsp agonist	Menin MLL FP FL	TRPV1 potentiator	D2 potentiator	gsp antag	ClpP mod	Sfp PPTase inh
COC(=O)C(NNc1ccccc1)(NC(=O)c1ccccc1F)C(F)(F)F (stereo not given)	-6%	-0.5	4	-15	4%	113%	15%
NCCCC[C@H](N[C@@H](CCc1ccccc1)C(=O)O)C(=O)N1CCC[C@H]1C(=O)O	12%	0.0	-4&1	-9&-9	11%&16%	0.4%&1.4%	17%&-22%
CCCCNC(=S)NNC(=O)c1csc(C)c1CC	-9%	1.4	-9	-37	4%	0.8%	3%
COc1cc(CNCCO)ccc1OC1CCCC1	3%	-1.3	1	-3	9%	1.8%	9%
S=C(Nc1ccc(Nc2ccccc2)cc1)Nc1ccccn1	-24%	0.6	5	-9	?	nt	12%
Cc1ccc(-n2nnnc2CCl)cc1	3%[15.4 µM]	6.0	12	-14	1%	-1.4%	?
O=C(NCCCN1CCOCC1)c1ccc2c(c1)N(Cc1cccc(Cl)c1)C(=O)CS2	-1%	-3.8	17	-8	-6%	nt	15%
CCN(CC(=O)NCc1ccc(F)cc1)Cc1nc2cc(Cl)ccc2c(=O)[nH]1	26%	10	29	-14	-2%	7.1µM*	4%
O=C(NCCCCc1ccccc1)C1CC(c2ccccc2C(F)(F)F)=NO1 (stereo not given)	25%	-1.0	?	-9	-7%	-0.3%	-7%
CC(C)N1CCN(c2ccncc2S(=O)(=O)N2CCN(C)CC2)CC1	-15%	nt	nt	-6	nt	-0.2%	nt
COc1ccc(S(=O)(=O)CCC(=O)O)cc1	6%	-0.2	2	-6	-3%	-0.1%	21%
CCCCC(=O)Nc1cnc(NC(=O)c2cccs2)cc1C	-23%	3.3	11	-1	-3%	-1.0%	12%
CC1CN(S(=O)(=O)c2cccc(C(=O)N(C)C3CCCCC3)c2)CC(C)O1 (stereo not given)	?	nt	nt	-4	nt	-2.4%	nt
CN(Cc1nc2ccccc2c(=O)[nH]1)C(=O)c1cccc(S(=O)(=O)N2CCCCCC2)c1	?	nt	10	-4	14%	-2.3%	nt
COc1ccc(NC(=O)C2C3C=CC(C3)C2C(=O)NCc2ccco2)cc1 (stereo not given)	-36%[inhibitor]	6.5	-6	-3	-3%	-2.3%	3%
COc1ccc(Cn2nnnc2C(c2cccs2)N2CCCCCC2)cc1 (stereo not given)	-24%	1.0	-10	-10	?	-3.2%	-14%
O=C(NCCOc1ccccc1F)c1cc(F)c(F)cc1Cl	-1%	0.8	-3	-18	8%	1.1%	-1%
CCCCCCNc1cc(C)oc(=O)c1C(C)=O	-1%	-4.1	-9	4	4%	1.0%	-1%
CCOC(=O)c1c(NC(=O)COC(=O)Cc2n[nH]c(=O)c3ccccc23)sc(C(=O)NC)c1C	12%	nt	nt	-5	19%	-4.1%	nt
O=C(NCCc1ccccc1)c1cc(=O)c2ccccc2o1	20%	0.6	1	-8	-4%	nt	8%
CN=c1scc(-c2cccs2)n1/N=C/c1ccc(O)c(O)c1O	-11%	4.8	4	109*	-21%	nt	11µM*
COc1ccccc1C(=O)Nc1ccccc1C(=O)Nc1ccccc1	-23%[15.4 µM]	nt	nt	-2	?	nt	nt
CCOC(=O)/C=C1/N(C)c2ccccc2C1(C)C	-44%[inhibitor]	0.4	-8	4	8%	nt	4%
Cn1c(CSc2ncccn2)nnc1SCC(=O)N1CCCCC1	-8%	2.4	5	-9	10%	-2.1%	-8%
COc1cc2c(cc1OC)C1=NC(=O)CN1C(SCc1ccccc1C)=N2	12%	4.8	nt	-8	13%	18µM*	-18%
COc1ccc(NC(=O)CCC(=O)c2cccs2)cc1Cl	?	-1.0	-10	0	-6%	nt	5%
NS(=O)(=O)c1ccc(NC(=O)COC(=O)CN2C(=O)C3CC=CCC3C2=O)cc1 (stereo not given)	-17%	nt	4	0	7%	1.0%	nt
CCc1ccccc1NC(=O)CN1CCN(C(=O)C2CCN(C(=O)/C=C/c3ccccc3)CC2)CC1	2%	nt	?	4	-10%	-4.0%	nt

Sorted by SMILES length (descending): 7 of the compounds above
SMILES	gsp agonist	Menin MLL FP FL	TRPV1 potentiator	D2 potentiator	gsp antag	ClpP mod	Sfp PPTase inh
NCCCC[C@H](N[C@@H](CCc1ccccc1)C(=O)O)C(=O)N1CCC[C@H]1C(=O)O	12%	0.0	-4&1	-9&-9	11%&16%	0.4%&1.4%	17%&-22%
CCN(CC(=O)NCc1ccc(F)cc1)Cc1nc2cc(Cl)ccc2c(=O)[nH]1	26%	10	29	-14	-2%	7.1µM*	4%
COC(=O)C(NNc1ccccc1)(NC(=O)c1ccccc1F)C(F)(F)F (stereo not given)	-6%	-0.5	4	-15	4%	113%	15%
CC(C)N1CCN(c2ccncc2S(=O)(=O)N2CCN(C)CC2)CC1	-15%	nt	nt	-6	nt	-0.2%	nt
COc1ccccc1C(=O)Nc1ccccc1C(=O)Nc1ccccc1	-23%[15.4 µM]	nt	nt	-2	?	nt	nt
O=C(NCCOc1ccccc1F)c1cc(F)c(F)cc1Cl	-1%	0.8	-3	-18	8%	1.1%	-1%
CCCCCCNc1cc(C)oc(=O)c1C(C)=O	-1%	-4.1	-9	4	4%	1.0%	-1%
